Polio RdRp inh: inhibitors of poliovirus RNA polymerase binding and polymerization. P03300. poliovirus polymerase elongation, fluorescence polarization; hits give low values. % elongation, % (compound at 16.7 µg/mL). 150,000 compounds, 0.66% hits. AID 588519; in the data active = % elongation below about 90%; note: some results filed as inactive read as strong as hits
Target sequence (P03300 1749-2209 limits assumed): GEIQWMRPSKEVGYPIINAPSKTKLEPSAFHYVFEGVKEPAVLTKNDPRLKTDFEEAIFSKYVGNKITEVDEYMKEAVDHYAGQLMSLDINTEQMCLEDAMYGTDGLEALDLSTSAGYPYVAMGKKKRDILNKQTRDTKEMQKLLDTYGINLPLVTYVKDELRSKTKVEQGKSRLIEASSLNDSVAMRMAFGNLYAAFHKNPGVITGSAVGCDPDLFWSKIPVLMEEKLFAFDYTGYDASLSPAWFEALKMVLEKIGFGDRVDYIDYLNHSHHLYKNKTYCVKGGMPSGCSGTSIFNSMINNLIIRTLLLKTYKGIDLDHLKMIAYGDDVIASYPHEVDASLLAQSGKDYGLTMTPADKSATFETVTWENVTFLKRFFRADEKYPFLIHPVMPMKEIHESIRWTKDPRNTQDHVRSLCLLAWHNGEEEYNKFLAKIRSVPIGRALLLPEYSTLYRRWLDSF
Polio RdRp inh intensity: recorded beside Polio RdRp inh, whose call it bears; % elongation; measured here: total intensity read-out; formula for this scale not given here;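 total fluorescence in place of polarization; lower means less elongation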
Numbers without * were called inactive. Only part of the results is shown; the hit share may differ from the screen's.

SMILES | Polio RdRp inh | Polio RdRp inh intensity
O=[N+]([O-])c1cc(-c2nc(-c3ccccc3)no2)ccc1NCC1CCCO1 (centres undefined) | 107 | 104
CCCCOC(=O)c1ccc(NC(=O)c2ccc3c(c2)CCN3S(=O)(=O)c2ccccc2)cc1 | 106 | 101
CCOC(=O)c1[nH]c(C)c(CCC(=O)N2CCN(c3ccc(Cl)cc3)CC2)c1C | 107 | 109
COc1ccc(N2CCN(S(=O)(=O)c3ccc(C4CCCCC4)cc3)CC2)cc1 | 102 | 105
CCOc1ccccc1C(=O)Nc1ccc2nc(N(CC)CC)cc(C)c2c1 | 108 | 115
COc1ccc(CCNc2nc3c(-c4cccc(C(F)(F)F)c4)nnn3c3ccccc23)cc1OC | 108 | 111
COc1ccc(CNC(=O)c2cc3oc4ccccc4c3n2C)cc1OC | 105 | 108
COc1cccc(-c2noc(COc3ccc(C(C)(C)C)cc3)n2)c1 | 120 | 122
CCOc1ccc(N2CC(c3nc4ccccc4n3CCOc3ccc(CC)cc3)CC2=O)cc1 (centres undefined) | 109 | 104
CCc1nn2c(=O)cc(COC(=O)c3ccc(NC(=O)C4CCCCC4)cc3)nc2s1 | 109 | 98
FC(F)(F)c1cc(-c2cccc(Br)c2)nc2ncnn12 | 108 | 109
CCOC(=O)c1cc(-c2ccccc2)n(CCCC(=O)Nc2ccc(C)c(C)c2)c1C | 109 | 104
COc1ccc(-c2nc3ccccc3s2)cc1NC(=O)c1cccc([N+](=O)[O-])c1C | 104 | 104
O=C(NNc1ncnc2c1cnn2-c1ccccc1)c1cccc(Cl)c1 | 106 | 100
COc1cccc(CN2C(=O)c3ccccc3Sc3ccc(C(=O)N(C)Cc4ccccc4)cc32)c1 | 111 | 112
CCOC(=O)c1cccc(NC(=O)c2ccc3c(c2)nnn3C2CCCC2)c1 | 111 | 110
Cc1ccc(CN(Cc2cccn2-c2nnc(N3CCCC3=O)s2)C(=O)Nc2ccccc2C(F)(F)F)cc1 | 108 | 105
CCCN(C(=O)C(=O)Nc1ccc2nc3n(c(=O)c2c1)CCCCC3)c1ccc(OCC)cc1 | 110 | 113
Cc1ccccc1NC(=O)CCn1nc(-c2ccc(Cl)cc2)c2ccccc2c1=O | 107 | 104
CC(C)C(=O)NC1CC(=O)N(c2ccc3c(c2)OCCO3)C1 (centres undefined) | 117 | 114
CCOC(=O)C1=C(CS(=O)(=O)c2cccc(C(F)(F)F)c2)NC(=O)NC1c1cccc(OC)c1 (centres undefined) | 106 | 106
Cc1ccc2c(CC(=O)Nc3cccc(Cl)c3C)coc2c1 | 113 | 113
Cc1cccc(CN2CCN(CC(=O)NCCc3ccc(Cl)cc3)C2=O)c1 | 113 | 110
COCCCNc1oc(-c2ccc(COc3ccc(Cl)cc3)o2)nc1C#N | 108 | 110
COc1cc(OC)cc(N2C(=O)N(CC(=O)c3ccc(F)cc3)c3ccccc3S2(=O)=O)c1 | 112 | 110
COCCN1C(=O)c2[nH]nc(-c3cc(C)ccc3O)c2C1c1ccc(C(C)C)cc1 (centres undefined) | 113 | 114
CCOc1ccc(/C=C/C(=O)Nc2sc3c(c2C(=O)OC)C(C(=O)OC)CC3)cc1 (centres undefined) | 79* | 74*
COc1ccc(C(=O)NC2(C(F)(F)F)C(=O)NC(C)=C2C#N)cc1 (centres undefined) | 103 | 104
CCc1nc2ccc(C(=O)NCCc3ccccc3OC)cc2nc1CC | 102 | 108
Cc1ccc(-n2c3c(cc(-c4nc(-c5ccc(Cl)cc5)cs4)c2=O)C(=O)CC(C)(C)C3)cc1C | 107 | 111
COc1cc(C(CC(=O)Nc2ccc(C)c(F)c2)N2Cc3ccccc3C2=O)cc(OC)c1OC (centres undefined) | 107 | 113
COc1ccc(NC(=O)CN2CCN(Cc3ccc(F)cc3)S2(=O)=O)cc1Cl | 97 | 92
CCOc1ccc2nc(N3CCCC(C(=O)Nc4ccc(CC)cc4)C3)sc2c1 (centres undefined) | 107 | 115
CCS(=O)(=O)N1CCc2cc(C(=O)NCCc3ccccc3)ccc21 | 114 | 112
Cc1cc(-c2ccc(S(=O)(=O)Nc3ccc(Cl)cc3C)cc2)on1 | 114 | 116
CCOc1cc2[nH]c(=O)n(CCCC(=O)N3CCN(c4cccc(Cl)c4)CC3)c(=O)c2cc1OCC | 106 | 104
COc1ccc(-c2nc3ccccc3s2)cc1NC(=O)c1cccc(F)c1 | 105 | 100
Nc1nonc1C(=O)NCCNCc1ccc(Cl)c(Cl)c1 | 108 | 110
COc1ccc(-c2ccc(CCC(=O)O)n2-c2cc(Cl)ccc2O)cc1 | 110 | 114
Cc1cccc(Cc2c(C)nc3nc(SCc4ccccc4F)nn3c2C)c1 | 109 | 113
O=C(NCCc1csc2nc(-c3ccc(F)cc3)nn12)c1cccc(C(F)(F)F)c1 | 107 | 109
Cc1ccc2[nH]c(=O)c3cc(C(=O)N4CCN(c5ccccc5F)CC4)sc3c2c1 | 106 | 111
CCOC(=O)c1c(S(=O)(=O)N2CCCC(C(=O)Nc3ncccc3C)C2)c(C)n(C)c1C (centres undefined) | 103 | 106
O=C(NCc1ccc(F)cc1)c1nnc(Cc2cccc(F)c2)o1 | 100 | 105
CC(=O)Nc1ccc(NC(=O)CN2C(=O)CC(c3ccco3)Sc3ccccc32)cc1 (centres undefined) | 104 | 110
O=C(NCCCN1CCN(c2ccc(F)cc2)CC1)c1cnn(-c2ccc(F)cc2)c1-n1cccc1 | 104 | 108
CCN(Cc1ccccc1)C(=O)Cn1ncc2c(=O)oc3ccc(C)cc3c21 | 110 | 112
O=C(Cn1cc(S(=O)(=O)Cc2ccccc2F)c2ccccc21)NCc1ccccc1Cl | 109 | 110
Cc1ccc(CN(Cc2cccn2-c2nnc(N3CCCC3=O)s2)C(=O)Nc2ccc(F)cc2)cc1 | 108 | 108
Fc1ccc(Nc2nc3ccccc3n3cnnc23)c(F)c1 | 108 | 107
Cc1nn(CC(=O)N2CCN(c3cccc(C(F)(F)F)c3)CC2)c(=O)c2cccn12 | 112 | 109
COc1cc(NC(=O)Cn2c(=O)n(Cc3ccco3)c(=O)c3oc4ccccc4c32)cc(OC)c1 | 106 | 111
COc1cccc(NC(=O)Cn2c(-c3nonc3N)nc3ccccc32)c1 | 101 | 103
Cc1c(C2=CCN(S(=O)(=O)c3ccc(CC(C)C)cc3)CC2)c2ccccc2n1CC(=O)N1CCCC1 | 106 | 101
O=S(=O)(Nc1ccc(-c2ccc(N3CCCCC3)nn2)cc1)c1ccc(OC(F)(F)F)cc1 | 108 | 110
COc1ccc(N2CCN(c3oc(/C=C/c4cc(OC)c(OC)c(OC)c4)nc3C#N)CC2)cc1 | 105 | 110
CN(C)CCNC(=O)C(=O)NCC(c1ccc2c(c1)OCO2)N1CCOCC1 (centres undefined) | 105 | 110
COc1ccc(C2c3c(n(C)c4ccccc34)C(=O)N2CC(=O)Nc2cccc(Cl)c2)cc1 (centres undefined) | 101 | 107
COc1ccc(NC(=O)c2cccn2-c2nnc(N3CCCCC3)s2)cc1Cl | 106 | 112
O=C1Cc2cc(S(=O)(=O)N3CCN(c4cccc(Cl)c4)CC3)ccc2N1 | 109 | 110

Arranged by number of heavy atoms (high to low): three of the compounds above.
SMILES | Polio RdRp inh | Polio RdRp inh intensity
CCOc1ccc(N2CC(c3nc4ccccc4n3CCOc3ccc(CC)cc3)CC2=O)cc1 (centres undefined) | 109 | 104
COc1ccc(-c2nc3ccccc3s2)cc1NC(=O)c1cccc([N+](=O)[O-])c1C | 104 | 104
O=C1Cc2cc(S(=O)(=O)N3CCN(c4cccc(Cl)c4)CC3)ccc2N1 | 109 | 110

Later entries:
SMILES | Polio RdRp inh | Polio RdRp inh intensity
Cc1c(C(=O)OC2CCCCCC2)[nH]c2c1C(=O)CC(c1ccccc1)C2 (centres undefined) | 107 | 110
CCOc1ccc(N(CC(=O)Nc2ccc(OC)cc2)S(=O)(=O)c2ccc(Cl)cc2)cc1 | 108 | 110
CC(C)OC(=O)c1c(NC(=O)c2cccc(C(F)(F)F)c2)sc2c1CCCC2 | 108 | 111
CCCc1ccc(NC(=O)C2CCCN(c3cnccn3)C2)cc1 (centres undefined) | 111 | 106
O=C(NCc1ccco1)c1ccc2c(c1)N(Cc1ccc(Cl)cc1)C(=O)c1ccccc1S2(=O)=O | 108 | 109
CCOC(=O)N1CCc2c(sc3c2c(=O)n(Cc2ccccc2)c(=O)n3CC(=O)Nc2ccccc2F)C1 | 99 | 104
COCCCNC(=O)Cn1cnc2sc(C)c(S(=O)(=O)N3CCC(C)CC3)c2c1=O | 108 | 105
CCC(=O)N1CCc2cc(Br)cc(S(=O)(=O)NCCc3ccc(OC)c(OC)c3)c21 | 108 | 110
Cc1ccc(CNC(=O)CCC(=O)N2CC(C)Sc3ccccc32)cc1 (centres undefined) | 108 | 108
CCOC(=O)c1ccc(NC(=O)CCC(=O)N2CCSc3ccccc32)cc1 | 108 | 111
COc1ccc(OC(C)c2nc3ccccc3[nH]2)cc1 (centres undefined) | 108 | 108
COc1ccc(CC(=O)Nc2c(C(=O)Nc3ccccc3F)oc3ccccc23)cc1 | 101 | 103
O=C(Cn1c(=O)nc(-c2ccccc2)c2ccccc21)NCCc1ccccc1 | 110 | 105
CC1=C(C(N)=O)C(c2cccc(C)c2)n2nc(-c3ccc(Cl)cc3)nc2N1 (centres undefined) | 105 | 106
Cc1cccc(N2CCN(c3nc4ccccc4c4nc(-c5ccccc5)nn34)CC2)c1C | 106 | 109
CC(C)c1ccc(NC(=O)c2ccc3c(c2)CCN3S(=O)(=O)c2ccccc2)cc1 | 108 | 111
Cc1oc(-c2ccccc2Cl)nc1CS(=O)(=O)CC(=O)NCc1ccc(F)cc1 | 99 | 102
Cc1ccc(NC(=O)C2CCCN(S(=O)(=O)c3c(C)n[nH]c3C)C2)cc1Cl (centres undefined) | 101 | 102
Cc1ccc(CNc2nccn(-c3cc(C)cc(C)c3)c2=O)cc1 | 109 | 111
O=C(c1ccc2c(c1)N(Cc1ccccc1)C(=O)c1ccccc1S2(=O)=O)N1CCN(c2ccccn2)CC1 | 106 | 111
Cc1ccccc1-n1c(SCC(=O)Nc2ccc(Cl)cc2Cl)nc(O)cc1=O | 94 | 136
CC1=C(C(=O)Nc2ccccc2Br)C2(CCC(C)CC2)OC1=O (centres undefined) | 105 | 106
CCC(C(=O)Nc1cc(OC)ccc1OC)n1c(C)c2cnn(-c3ccccc3)c(=O)c2c1C (centres undefined) | 105 | 102
Cn1ccc2cc(S(=O)(=O)N3CCCC(C(=O)NCc4ccccc4)C3)ccc21 (centres undefined) | 108 | 114
CCOc1ccc(CCNC(=O)c2ccc3c(c2)c(C)c(C)n3C)cc1 | 107 | 109
CCN1CCN(CCCNC(=O)c2cnn(-c3ccccc3Cl)c2C2CCN(C(=O)OC(C)(C)C)CC2)CC1 | 96 | 94
CCc1ccccc1NC(=O)C1CCN(C(=O)N2CC(C)Oc3ccc(Cl)cc32)CC1 (centres undefined) | 114 | 113
CN(CC(=O)Nc1cccc(Cl)c1)S(=O)(=O)c1ccc2[nH]c3c(c2c1)CCCC3 | 112 | 116
O=C(CN1C(=O)c2ccccc2Sc2ccc(C(=O)N3CCOCC3)cc21)Nc1ccc(Cl)cc1F | 106 | 110
Cc1cccc(N2CCN(c3ncnc4onc(C)c34)CC2)c1C | 108 | 104
CCOC(=O)c1c(NC(=O)C(C)Oc2ccc(Cl)c(C)c2)sc2c1CCCC2 (centres undefined) | 104 | 104
CC(C)(C)C(=O)Nc1nc2nc(-c3ccccc3)cc(=O)n2[nH]1 | 104 | 103
Cc1cc(C)cc(Nc2ncnc3c2nc2n3CCCC2)c1 | 98 | 106
O=C(Cn1c(=O)n(Cc2ccc(C(=O)NCc3ccccc3Cl)cc2)c(=O)c2ccccc21)Nc1ccc(F)cc1 | 104 | 107
Cc1ccc(NC(=O)c2ccc3oc(=O)c(S(=O)(=O)c4ccccc4)cc3c2)cc1C | 101 | 105
CCCS(=O)(=O)NCCc1sc2nc(-c3ccc(Cl)cc3)nn2c1C | 104 | 106
CCn1c(NCc2ccc(OC)cc2)nc2ccccc21 | 104 | 102
Cc1ccc(CNC(=O)CCn2ccc3cc(S(=O)(=O)N4CCCC4)ccc32)cc1 | 110 | 114
Cc1cc(C)c(S(=O)(=O)NCCc2cc3cc(C)c(C)cc3[nH]c2=O)c(C)c1 | 105 | 110
CCCCCn1c(=O)[nH]c2cc(C(=O)N3CCN(c4cccc(C)c4)C(C)C3)ccc2c1=O (centres undefined) | 105 | 108
O=S(=O)(NCc1ccc(F)cc1)c1ccc(N2CCCCS2(=O)=O)cc1 | 102 | 105
CCN(CC)c1ccc(NC(=O)CN2CCN(c3ccccc3OC)CC2)cc1 | 111 | 110
CCC(Sc1nc2c(sc3ccccc32)c(=O)n1CCc1ccccc1)C(=O)N(CC)CC (centres undefined) | 113 | 115
Cc1oc(-c2ccccc2F)nc1CS(=O)(=O)CC(=O)NCCc1ccc(Cl)cc1 | 103 | 97
CCOc1ccc(CCNC(=O)c2cnc3sc(N(CC)CC)nn3c2=O)cc1OCC | 101 | 97

By substructure, the entries above with an NH in an aromatic ring.
SMILES | Polio RdRp inh | Polio RdRp inh intensity
CCOC(=O)c1[nH]c(C)c(CCC(=O)N2CCN(c3ccc(Cl)cc3)CC2)c1C | 107 | 109
COCCN1C(=O)c2[nH]nc(-c3cc(C)ccc3O)c2C1c1ccc(C(C)C)cc1 (centres undefined) | 113 | 114
CCOc1cc2[nH]c(=O)n(CCCC(=O)N3CCN(c4cccc(Cl)c4)CC3)c(=O)c2cc1OCC | 106 | 104
Cc1ccc2[nH]c(=O)c3cc(C(=O)N4CCN(c5ccccc5F)CC4)sc3c2c1 | 106 | 111
Cc1c(C(=O)OC2CCCCCC2)[nH]c2c1C(=O)CC(c1ccccc1)C2 (centres undefined) | 107 | 110
COc1ccc(OC(C)c2nc3ccccc3[nH]2)cc1 (centres undefined) | 108 | 108
Cc1ccc(NC(=O)C2CCCN(S(=O)(=O)c3c(C)n[nH]c3C)C2)cc1Cl (centres undefined) | 101 | 102
CN(CC(=O)Nc1cccc(Cl)c1)S(=O)(=O)c1ccc2[nH]c3c(c2c1)CCCC3 | 112 | 116
CC(C)(C)C(=O)Nc1nc2nc(-c3ccccc3)cc(=O)n2[nH]1 | 104 | 103
Cc1cc(C)c(S(=O)(=O)NCCc2cc3cc(C)c(C)cc3[nH]c2=O)c(C)c1 | 105 | 110
CCCCCn1c(=O)[nH]c2cc(C(=O)N3CCN(c4cccc(C)c4)C(C)C3)ccc2c1=O (centres undefined) | 105 | 108

Screening data from PubChem BioAssay.
